Screens: PubChem BioAssay, Broad Institute
Yeast UUG start: modulators of start codon recognition fidelity in yeast; S. cerevisiae UUG-firefly luciferase reporter, luminescence/redox ratio; activity score, % at 18.7 µM; 350,000 tested, 0.13% active;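 active = replicate mean at a twofold rise or more, about +100% in these data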;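 note: firefly luciferase made from a UUG start codon reports start codon fidelity; reporter light over untreated wells divided by growth signal over untreated wells; some hits fall short of that in this replicate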
Env fusion inh: HIV envelope-mediated fusion inhibition. HeLa-JRFL Env/CEM21 cell fusion, luciferase. inhibition, % at 12.3 µM. 360,000 tested, 1.1% active;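 active = mean replicate inhibition score of at least 50 and every replicate individually at or above 50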;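 note: 0% = plate neutral controls and 100% = maraviroc near 300 nM; one replicate is shown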
Active calls of the source: *; [ ] = dose if it differs, or a comment.

Second line of a record – Yeast UUG start	Env fusion inh
- C[C@@H]1CCCCO[C@H](CN(C)C(=O)CCCN(C)C)[C@H](C)CN([C@@H](C)CO)C(=O)c2cc(NC(=O)NC3CCCCC3)ccc2O1
  27.9	-14.4[16.7 µM]
- Cc1ccc(S(=O)(=O)N(C)C[C@H]2OCCCC[C@H](C)Oc3ccc(NS(=O)(=O)c4cn(C)cn4)cc3C(=O)N([C@H](C)CO)C[C@H]2C)cc1
  -0.7	5.8[16.7 µM]
- O=C(NCC[C@H]1CC[C@@H](NC(=O)c2ccc3c(c2)OCO3)[C@H](CO)O1)Nc1cc(F)ccc1F
  -0.5	-0.8[16.7 µM]
- C[C@@H]1CN([C@H](C)CO)C(=O)c2cc(NC(=O)Nc3cccc4ccccc34)ccc2O[C@@H](C)CCCCO[C@H]1CN(C)Cc1ccc2c(c1)OCO2
  -2.9	18.6[16.7 µM]
- COCC#Cc1ccc2c(c1)O[C@H](CN(C)Cc1ccccc1F)[C@@H](C)CN([C@@H](C)CO)S2(=O)=O
  -10.3	3.3[16.7 µM]
- C[C@H]1CN([C@@H](C)CO)S(=O)(=O)c2ccc(-c3cccnc3)cc2O[C@@H]1CN(C)C(=O)NC1CCCCC1
  8.1	-1.4[16.7 µM]
- CNC[C@@H]1Oc2ncc(C#CCC3CCCC3)cc2C(=O)N([C@H](C)CO)C[C@@H]1C
  -11.1	24.6[16.7 µM]
- CO[C@@H]1CN(C)C(=O)c2ccc(NC(=O)c3ccc(F)cc3)cc2OC[C@@H](C)N(C)C[C@H]1C
  1.4	6.1[16.7 µM]
- CNC[C@H]1Oc2ccc(NC(=O)Nc3ccc4c(c3)OCO4)cc2C(=O)N([C@@H](C)CO)C[C@H]1C
  13.4	-25.7[16.7 µM]
- C[C@@H]1CN([C@@H](C)CO)C(=O)c2cc(NC(=O)Cc3ccccc3)ccc2O[C@@H](C)CCCCO[C@@H]1CN(C)S(=O)(=O)c1ccccc1
  -4.0	11.7[16.7 µM]
- COc1ccc(NC(=O)Nc2ccc3c(c2)C(=O)N([C@@H](C)CO)C[C@@H](C)[C@@H](CN(C)C(=O)Nc2ccc(OC)cc2)O3)cc1
  -6.2	5.3[16.7 µM]
- C[C@H]1CN([C@@H](C)CO)C(=O)c2cc(-c3cccnc3)cnc2O[C@@H]1CN(C)Cc1ccc(-c2ccccc2)cc1
  7.3	12.7[16.7 µM]
- O=C(C[C@@H]1CC[C@H](NC(=O)NC2CCCCC2)[C@H](CO)O1)NCc1ccc(F)cc1
  5.8	-2.1[16.7 µM]
- C[C@@H]1CCCCO[C@H](CN(C)C(=O)Nc2ccc(F)cc2)[C@@H](C)CN([C@@H](C)CO)C(=O)c2cc(NS(=O)(=O)c3ccc(F)cc3)ccc2O1
  -10.3	-75.1[16.7 µM]
- O=S(=O)(N[C@@H]1CC[C@H](CCn2cc(-c3ccccn3)nn2)O[C@H]1CO)c1cccc(Cl)c1
  -21.7	-11.5[16.7 µM]
- COc1ccc(CN(C)C[C@H]2OCCCC[C@@H](C)Oc3ccc(NC(=O)Nc4c(C)noc4C)cc3C(=O)N([C@@H](C)CO)C[C@H]2C)cc1
  13.8	-36.9[16.7 µM]
- O=C(N[C@@H]1CC[C@@H](CCNC(=O)c2ccccc2F)O[C@H]1CO)c1cnccn1
  0.4	6.0[16.7 µM]
- CS(=O)(=O)Nc1ccc2c(c1)[C@H]1C[C@H](CC(=O)N3CCc4ccccc4C3)O[C@H](CO)[C@H]1O2
  -0.8	62.6*[16.7 µM]
- Cc1noc(C)c1S(=O)(=O)Nc1ccc2c(c1)C(=O)N([C@H](C)CO)C[C@H](C)[C@H](CN(C)Cc1ccccc1)O2
  6.8	-16.8[16.7 µM]
- COc1ccccc1C#Cc1ccc2c(c1)O[C@H](CN(C)Cc1ccncc1)[C@@H](C)CN([C@@H](C)CO)S2(=O)=O
  20.4	47.7*[16.7 µM]
- CC(C)NC(=O)N(C)C[C@@H]1Oc2ccc(NC(=O)C3CCCCC3)cc2CC(=O)N([C@@H](C)CO)C[C@H]1C
  0.2	19.6[16.7 µM]
- COCC(=O)N1C[C@@H](C)[C@H](OC)CN(C)C(=O)c2cc(NC(=O)c3ccc(OC)cc3)ccc2OC[C@H]1C
  1.3	18.4[16.7 µM]
- C[C@@H]1CCCCO[C@H](CN(C)C(=O)Nc2ccccc2)[C@@H](C)CN([C@H](C)CO)C(=O)c2cc(NC(=O)c3ccccc3)ccc2O1
  12.1	-11.7[16.7 µM]
- C[C@H]1CN([C@@H](C)CO)C(=O)c2cc(NC(=O)CCCN(C)C)ccc2O[C@H]1CN(C)CC1CC1
  -4.1	11.9[16.7 µM]
- C[C@H](CO)N1C[C@H](C)[C@H](CN(C)C(=O)C2CC2)Oc2ncc(-c3ccncc3)cc2C1=O
  1.5	-9.8[16.7 µM]
- CC(C)NC(=O)N1[C@H](CO)[C@H](c2ccc(C#CC3CC3)cc2)[C@@H]1C#N
  8.3	0.3[16.7 µM]
- CN1C(=O)c2cc(NC(=O)c3cscn3)ccc2OC[C@@H]2O[C@@H](CC(=O)N3CCOCC3)CC[C@H]21
  -9.4	-8.0[16.7 µM]
- C[C@@H]1CCCCO[C@H](CN(C)Cc2ccncc2)[C@H](C)CN([C@@H](C)CO)C(=O)c2cc(NS(=O)(=O)c3ccc(Cl)cc3)ccc2O1
  8.3	3.2[16.7 µM]
- C[C@H]1CN([C@@H](C)CO)S(=O)(=O)c2ccc(-c3ccncc3)cc2O[C@@H]1CN(C)Cc1cccnc1
  -12.3	-5.0[16.7 µM]
- CO[C@H]1CN(C)C(=O)c2cc(NS(=O)(=O)c3ccccc3F)ccc2OC[C@@H](C)NC[C@H]1C
  -12.0	10.3[16.7 µM]
- O=C(N[C@H]1CC[C@@H](CC(=O)N2CCOCC2)O[C@@H]1CO)c1cccc(F)c1
  -15.1	18.6[16.7 µM]
- C[C@@H]1CN([C@H](C)CO)C(=O)c2cc(NC(=O)Nc3ccc(C(F)(F)F)cc3)ccc2O[C@@H](C)CCCCO[C@H]1CN(C)C(=O)Nc1ccc(F)cc1
  -21.1	46.6[16.7 µM]
- Cc1ccc(-c2ccc3c(c2)O[C@H](CN(C)Cc2ccc(C(=O)O)cc2)[C@@H](C)CN([C@@H](C)CO)S3(=O)=O)cc1
  15.7	-2.2[16.7 µM]
- COc1ccc(S(=O)(=O)N(C)C[C@H]2OCCCC[C@@H](C)Oc3ccc(NC(=O)Nc4c(C)noc4C)cc3C(=O)N([C@@H](C)CO)C[C@H]2C)cc1
  -6.9	-57.4[16.7 µM]
- C[C@H](CO)N1C[C@H](C)[C@@H](CN(C)C(=O)Nc2ccc(F)cc2)OCCCC[C@H](C)Oc2ccc(NC(=O)Nc3cccc4ccccc34)cc2C1=O
  -0.6	-9.2[16.7 µM]
- C[C@@H]1CCCCO[C@@H](CN(C)C(=O)C2CCCCC2)[C@H](C)CN([C@H](C)CO)C(=O)c2cc(NS(=O)(=O)c3ccc(F)cc3)ccc2O1
  5.6	-77.1[16.7 µM]
- C[C@@H]1CN([C@@H](C)CO)C(=O)c2cc(-c3ccc(F)cc3)cnc2O[C@@H]1CN(C)Cc1cccnc1
  -11.6	-4.4[16.7 µM]
- COc1ccccc1C(=O)Nc1ccc2c(c1)OC[C@H](C)N(C)C[C@@H](C)[C@H](OC)CN(C)C2=O
  -9.7	0.3[16.7 µM]
- C[C@@H]1CN([C@@H](C)CO)C(=O)Cc2cc(NC(=O)CCN3CCOCC3)ccc2O[C@@H]1CN(C)S(=O)(=O)c1cccs1
  1.9	-8.7[16.7 µM]
- C[C@H](CO)N1C[C@H](C)[C@@H](CN(C)C(=O)C2CC2)Oc2cc(C#Cc3ccccn3)ccc2S1(=O)=O
  6.4	-30.8[16.7 µM]
- O=C(C[C@@H]1CC[C@H](NC(=O)CCN2CCCCC2)[C@H](CO)O1)NCc1ccc(Cl)c(Cl)c1
  -3.1	0.6[16.7 µM]
- Cc1noc(C)c1NC(=O)N[C@H]1C=C[C@@H](CC(=O)N2CCCCC2)O[C@H]1CO
  -6.4	28.3[16.7 µM]
- CC(=O)N[C@H]1CC[C@@H](CC(=O)NCc2ccc(Cl)cc2)O[C@@H]1CO
  -11.8	0.5[16.7 µM]
- COCC#Cc1cnc2c(c1)C(=O)N([C@@H](C)CO)C[C@H](C)[C@@H](CN(C)C(=O)C1CC1)O2
  19.4	-14.0[16.7 µM]
- C[C@@H]1CCCCO[C@@H](CN(C)C(=O)C2CCCCC2)[C@@H](C)CN([C@@H](C)CO)C(=O)c2cc(NC(=O)Nc3ccc(C(F)(F)F)cc3)ccc2O1
  0.2	25.8[16.7 µM]
- COCC#Cc1cnc2c(c1)C(=O)N([C@H](C)CO)C[C@H](C)[C@@H](CN(C)Cc1ccc(-c3ccccc3)cc1)O2
  -3.3	27.1[16.7 µM]
- COc1ccc(NC(=O)N(C)C[C@H]2Oc3ccc(NS(=O)(=O)c4ccccc4)cc3C(=O)N([C@H](C)CO)C[C@H]2C)cc1
  1.8	-3.8[16.7 µM]
- CCCN(C)C[C@H]1Oc2cc(C#CC3CCCCC3)ccc2S(=O)(=O)N([C@H](C)CO)C[C@@H]1C
  0.6	17.3[16.7 µM]
- Cc1ccc(S(=O)(=O)Nc2ccc3c(c2)C(=O)N([C@H](C)CO)C[C@@H](C)[C@H](CN(C)CC2CCCCC2)O3)cc1
  -22.7	-0.5[16.7 µM]
- CO[C@H]1CN(C)C(=O)c2ccc(NS(=O)(=O)c3cccc(F)c3)cc2OC[C@@H](C)NC[C@H]1C
  -1.6	-9.6[16.7 µM]
- C[C@H]1CN([C@@H](C)CO)C(=O)c2cc(/C=C/c3ccccc3)cnc2O[C@H]1CN(C)S(=O)(=O)c1ccc(F)cc1
  -0.8	52.6[16.7 µM]
- C[C@H]1CN([C@@H](C)CO)C(=O)Cc2cc(NS(=O)(=O)c3ccc(Cl)cc3)ccc2O[C@H]1CN(C)Cc1ccccc1
  -4.5	-18.5[16.7 µM]
- C[C@@H]1CN([C@@H](C)CO)C(=O)c2cc(NC(=O)c3ccccc3)ccc2O[C@@H](C)CCCCO[C@@H]1CN(C)S(=O)(=O)c1ccccc1
  -6.0	-26.4[16.7 µM]
- COc1ccc(NC(=O)Nc2ccc3c(c2)C(=O)N([C@H](C)CO)C[C@@H](C)[C@@H](CN(C)C(=O)NC2CCCCC2)OCCCC[C@H](C)O3)cc1
  -3.7	-10.1[16.7 µM]
- COC(=O)[C@]1(Cc2ccccc2N=[N+]=[N-])N=C(c2ccc(OCCCO)cc2)O[C@@H]1c1ccccc1
  -2.3	49.2[16.7 µM]
- C[C@@H]1CN([C@H](C)CO)C(=O)c2cc(NC(=O)Cc3ccccc3)ccc2O[C@H]1CN(C)CC1CCCCC1
  -11.9	6.7[16.7 µM]
- C[C@@H]1CN([C@@H](C)CO)C(=O)c2cc(NC(=O)CCC(F)(F)F)ccc2O[C@@H](C)CCCCO[C@H]1CN(C)Cc1ccc(C(F)(F)F)cc1
  6.4	16.8[16.7 µM]
- C[C@@H]1CN([C@@H](C)CO)C(=O)c2cc(C3=CCCC3)cnc2O[C@@H]1CN(C)Cc1ccccc1C(=O)O
  17.1	-20.0[16.7 µM]
- COCCNC(=O)C[C@@H]1C=C[C@@H](NS(=O)(=O)c2ccc(C)cc2)[C@H](CO)O1
  -4.5	-24.3[16.7 µM]
- C[C@@H]1CN([C@H](C)CO)C(=O)c2cc(NC(=O)CCCN(C)C)ccc2O[C@@H]1CN(C)Cc1ccncc1
  -7.9	12.9[16.7 µM]

Whole records from above. Order of screens: Yeast UUG start | Env fusion inh
Shown for O=C(C[C@@H]1CC[C@H](NC(=O)NC2CCCCC2)[C@H](CO)O1)NCc1ccc(F)cc1 = 5.8 | -2.1[16.7 µM]
Shown for CC(=O)N[C@H]1CC[C@@H](CC(=O)NCc2ccc(Cl)cc2)O[C@@H]1CO = -11.8 | 0.5[16.7 µM]
Shown for CO[C@H]1CN(C)C(=O)c2cc(NS(=O)(=O)c3ccccc3F)ccc2OC[C@@H](C)NC[C@H]1C = -12.0 | 10.3[16.7 µM]

(listing goes on)
Second line of a record – Yeast UUG start	Env fusion inh
- C/C=C/c1cnc2c(c1)C(=O)N([C@@H](C)CO)C[C@H](C)[C@@H](CN(C)C(=O)Cc1cccnc1)O2
  -10.1	-22.6[16.7 µM]
- CC(C)CC#Cc1ccc2c(c1)O[C@H](CN(C)C(=O)c1ccccn1)[C@@H](C)CN([C@H](C)CO)S2(=O)=O
  17.1	-10.2[16.7 µM]
- C[C@H](O)C#Cc1ccc2c(c1)O[C@H](CN(C)CC1CC1)[C@@H](C)CN([C@H](C)CO)S2(=O)=O
  -8.7	-24.3[16.7 µM]
- C[C@H](CO)N1C[C@H](C)[C@H](CN(C)S(=O)(=O)c2cn(C)cn2)Oc2ccc(NC(=O)Cc3cn(C)c4ccccc34)cc2CC1=O
  14.8	-12.1[16.7 µM]
- COc1ccc(NC(=O)Nc2ccc3c(c2)C(=O)N([C@@H](C)CO)C[C@H](C)[C@@H](CN(C)S(=O)(=O)c2ccccc2)OCCCC[C@H](C)O3)cc1
  9.5	-1.5[16.7 µM]
- Cc1noc(C)c1NC(=O)N(C)C[C@@H]1Oc2ccc(NC(=O)Cc3cn(C)c4ccccc34)cc2CC(=O)N([C@@H](C)CO)C[C@H]1C
  11.7	3.2[16.7 µM]
- C[C@H]1CN([C@@H](C)CO)C(=O)c2cc(C#CC(C)(C)O)cnc2O[C@H]1CN(C)C(=O)C1CC1
  -8.5	4.9[16.7 µM]
- COc1ccccc1NC(=O)N[C@H]1C=C[C@H](CC(=O)N2CCC(Cc3ccccc3)CC2)O[C@@H]1CO
  39.1	18.3[16.7 µM]
- C[C@@H]1CN([C@H](C)CO)S(=O)(=O)c2ccc(C3=CCCCC3)cc2O[C@H]1CN(C)Cc1ccccc1F
  -3.3	30.6[16.7 µM]

This is a subset, so the mix of outcomes need not match the whole.
